Bioassay records as filed in PubChem.
CDC25B CDK2 inh: human CDC25B-CDK2/CyclinA binding inhibition; 0.72% of 94,000 active; HTRF CDC25B-CDK2/CyclinA binding, anti-His/anti-Flag; active compounds read high; z-score (no concentration beside the values); P30305+P24941; AID 1259370;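 further: score is relative to mean and SD of negative controls; strong numbers were not always called active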
TAR Tat displ: HIV-1 TAR-Tat binding disruption; HIV-1 TAR RNA, Tat peptide displacement FRET; active compounds read high; z-score (no concentration beside the values); 0.6% of 100,000 active; AID 1259389;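 further: score is relative to mean and SD of negative controls; some compounds called inactive have numbers as strong as hits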
Starred values were filed as active, the others as inactive; · = no result given.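 How the source made its calls: active means z-score from 3 up in half or more of its runs; inactive means the rest.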

SMILES	CDC25B CDK2 inh	TAR Tat displ
CCSCCOC(=O)C1=C(C)NC2=C(C(=O)CC(C)(C)C2)C1c1ccc(SC)cc1 (configuration not stated)	-0.7	1.4
COCCCN(Cc1cccs1)S(=O)(=O)c1csc(C(N)=O)c1	·	0.62
Cc1nc(-c2ccc(S(=O)(=O)Nc3cccnc3)cc2)co1	·	0.29
CCCC(=O)Nc1nnc(SCc2cc(=O)n3c4c(sc3n2)CCCC4)s1	·	1.1
CCOCCOC(=O)C1=C(C)NC2=C(C(=O)CC(c3ccccc3)C2)C1c1cccc2ccccc12 (configuration not stated)	-2	0.76
O=C(c1ccc2c(c1)nc1n2CCOC1)N1CCCC1	·	1.2
CCOc1ccc2c(c1)C1(SC(NC(C)=O)=NN1C(C)=O)C(=O)N2C (configuration not stated)	-0.17	·
CCOc1ccccc1N(C)C(=O)c1[nH]nc2c1CSc1ccccc1-2	·	-0.11
Cc1cc(C)n(-c2cc(Nc3ccc(C)c(Cl)c3)ncn2)n1	·	-4.1
COC(=O)c1cc(=O)n2c(n1)sc1cc(OC)ccc12	-0.45	0.83
O=C(c1ccc2c(c1)OCO2)N(Cc1cccs1)C1(C(=O)NC2CCCC2)CCCCC1	-0.11	·
O=C(NCC(c1ccco1)N1CCCC1)c1cccs1 (configuration not stated)	1.3	-0.34
CC1CCCN(CCCNS(=O)(=O)c2ccc3c(c2)CCCC(=O)N3)C1 (configuration not stated)	·	1.9
Cc1cccc(CNS(=O)(=O)c2cc(-c3cnc(C4CC4)o3)ccc2C)c1	·	1.3
Cc1nc2scc(C)n2c(=O)c1S(=O)(=O)NCc1ccccc1	-1.5	1.8
COCCCNC(=O)C(C)n1c2ccccc2c2nc(=O)cc(C)n21 (configuration not stated)	-0.83	-4.4
O=C(CN1C(=O)COc2ccc(S(=O)(=O)N3CCCC3)cc21)N1CCN(C2CCCCC2)CC1	·	1.2
CCC(C)NC(=O)C1CC(c2cnn(CC)c2C)=NO1 (configuration not stated)	-1.6	0.42
Cc1csc(NC(=O)C2CCCN(c3ncnc4onc(C)c34)C2)n1 (configuration not stated)	·	2.3
O=S(=O)(NCc1ccc(-c2csnn2)cc1)c1cc(C(F)(F)F)cc(C(F)(F)F)c1	-0.91	·
O=C1CC(c2cccs2)c2cnn(-c3nc4ccccc4s3)c2N1 (configuration not stated)	·	2.3
O=S(=O)(Nc1cnc2ccccc2c1)c1ccc(F)cc1	-1.8	·
O=C(c1cccc(Nc2nc(-c3ccccc3)c3cc(Br)ccc3n2)c1)N1CCOCC1	-3	·
Brc1ccc(CSc2nnc(C3CCNCC3)o2)cc1	-1.1	-0.23
CN(C)c1ccc(Nc2cc(N3CCC(=O)CC3)c3noc4c3c2C(=O)c2ccccc2-4)cc1	-0.71	-4.1
CCOC(=O)C1=C(C)NC2=C(C(=O)CC(c3ccccc3)C2)C1c1ccc(C)o1 (configuration not stated)	-1.5	0.07
Cc1cc(C)c(NC(=O)Nc2csc3c2CCCC3)c(C)c1	-0.2	-0.08
Cc1ccccc1-c1nnc2c3ccccc3c(C)nn12	-0.17	1.2
COc1ccc(Br)cc1C(=O)Nc1c(-n2cnnc2)nn(C)c1C	-1.6	2.2
O=C1c2cccnc2C(Nc2ccc(F)cc2Cl)N1Cc1ccc(F)cc1 (configuration not stated)	·	-0.68
O=[N+]([O-])c1ccc(N2CC=CCC2)nc1	-1.7	·
Cn1cccc1Cc1nnc(SCC(=O)NCc2ccco2)n1-c1ccc(Cl)cc1	-1.3	2.1
NNC(=O)c1cc2cc(OC(F)(F)F)ccc2[nH]1	-1.8	·
O=C(OC1CSc2nc3ccccc3n2C1)c1ccc([N+](=O)[O-])o1 (configuration not stated)	-1.6	·
COC(=O)c1c(SCC(=O)Nc2ccc3c(c2)OCO3)[nH]c2ccc(Cl)cc2c1=O	·	-4.1
CC1CN(c2cccc(Cl)c2)c2nc3c(c(=O)n(CC(=O)O)c(=O)n3C)n2C1 (configuration not stated)	0.85	0.6
Cc1cc(C)cc(NS(=O)(=O)c2ccc(-c3cc(C)no3)cc2)c1	·	-0.98
COc1cccc(OCc2cc(=O)n3nc(C)sc3n2)c1	0.11	-0.36
Cc1cccc(NS(=O)(=O)c2cc(-c3noc(C)n3)cs2)c1	·	0.64
COc1cc(Nc2ncc3c(n2)CCN(Cc2ccc(OC)cc2OC)C3)cc(OC)c1	·	0.96
O=C1NCC(c2ccccc2)Oc2ccccc21 (configuration not stated)	0.33	·
Nc1c(C(=O)N2CCOCC2)sc2nc(-c3ccccc3)cc(C(F)(F)F)c12	-2.7	0.41
CC1=C(C(=O)Nc2ccccc2)C(c2cccs2)C(C#N)=C(SCC(=O)O)N1 (configuration not stated)	-0.11	0.57
COC(=O)c1sc(C(F)(F)F)c(-c2ccccc2)c1S(=O)(=O)Oc1cccc(C)c1	-2.4	·
CCOC(=O)c1sc(NC(=O)c2nc3ncccn3n2)c(C(=O)OCC)c1C	-2.4	-1.2
CS(=O)(=O)Nc1nc2ccc(NC(=O)C3CCCCC3)cc2s1	·	-0.96
CS(=O)(=O)c1ccc2nc(NC(=O)Nc3ccc(Cl)cc3)sc2c1	2.4	0.66
CCOC(=O)c1ccc(Cn2nnc3sc4c(c3c2=O)CCCC4)cc1	-0.54	2.3
COC(=O)c1cc(-c2ccc(OC)cc2OC)no1	0.35	-0.05
Cc1cc2oc(C(=O)N3CCC(c4nc5ccccc5s4)CC3)c(C)c2cc1C	0.06	1.8
O=C(NC1CCCC1)c1cnn2c(-c3ccccc3)cc(-c3ccccc3)nc12	·	0.5
Cc1ccc(-c2cn3cc(-c4ccc(Br)cc4)nc3n2C)cc1	-0.82	-1.1
COC(=O)CSc1nnc2n(-c3ccc(OC)cc3)c(=O)c3c4c(sc3n12)CCCCC4	-3.4	·
Cn1c2ccccc2c2nn3c(SCc4ccccc4)nnc3nc21	-0.89	3.4
O=C(CSc1nc2c([nH]c3ccccc32)c(=O)n1-c1ccccc1)N1CCCC1	·	1.6
CC(C)Nc1cc(N2CCN(Cc3ccc4c(c3)OCO4)CC2)c2noc3c2c1C(=O)c1ccccc1-3	-0.5	-6.3
NC(=O)c1nc(-c2ccccc2Cl)nc2c1[nH]c(=O)n2-c1ccc(F)cc1	·	0.89
c1ccc2[nH]c(CCCc3nc4ccccc4[nH]3)nc2c1	0.07	0.16
CCCc1nn2cc(-c3ccc(CC)cc3)nc2s1	-1.1	0.18
O=c1c(Nc2cccc(F)c2)c(-c2ccccc2)c1=O	·	1.3
Other results.
SMILES	CDC25B CDK2 inh	TAR Tat displ
Cc1cccn2c(=O)c(C(=O)NC(C)c3ccccc3)cnc12 (configuration not stated)	·	0.26
Clc1ccccc1OCc1nn2c(Cn3nnc4ccccc43)nnc2s1	-2	2.9
CCOc1ccc(OCC)c(NS(=O)(=O)c2c[nH]c(C(=O)OC)c2)c1	·	3.3
CCC1CCCCN1CCCNC(=O)C1CCN(C(=O)c2cc3sccc3n2C)CC1 (configuration not stated)	-1.6	1
CC1(C)CC(=O)C2=C(C1)Nc1nonc1NC2c1cccnc1 (configuration not stated)	-1.9	0.12
Cc1nnc2n(c1=O)C(CS(=O)(=O)c1ccccc1)CS2 (configuration not stated)	0.65	-1.4
Cc1cccc(C(=O)Nc2ccccc2-c2nc3ccccc3[nH]2)c1	0.47	·
NCCn1c(CCc2ccccc2)nc2ccccc21	·	1.7
Cc1ccn2c(=O)c(NC(=O)CC3CCCCC3)c(C)nc2c1	·	0.76
CC1CCCN(S(=O)(=O)c2cc(Br)cnc2N)C1 (configuration not stated)	-1.5	0.81
Fc1ccccc1COc1nsnc1N1CCOCC1	-0.67	-0.07
CCn1nc(C)c(CNC(=O)Nc2ccc(OC)cc2OC)c1C	·	0.28
Fc1ccc(-c2ccc(CNCCSc3nnnn3-c3ccccc3)o2)cc1	0.44	1.1
Cc1ccc2nc(NCc3ccc4c(c3)OCO4)c3nncn3c2c1	-0.45	1.4
Cc1ccc(S(=O)(=O)n2nc(-c3ccc(Cl)cc3)nc2N)cc1	0.15	0.84
Cc1cc(C)c(Nc2nnc(SCC(=O)c3ccccc3)s2)cc1C	-0.36	·
C=C1C[C@]23C[C@@]1(O)CC[C@H]2[C@@]12C=C[C@H](O)C(C)(C(=O)O1)[C@H]2[C@@H]3C(=O)O	-0.76	-1.1
CC(c1nnc(SCC(=O)N2CCc3ccccc32)n1C)N1C(=O)COc2ccccc21 (configuration not stated)	·	-1.7
CCOC(=O)Cn1c(=O)oc2cc(S(=O)(=O)N3CCCCC3)ccc21	-0.36	-0.5
CN1CCN(c2nc3c(c(=O)n(C)c(=O)n3C)n2Cc2cccc(F)c2)CC1	0.16	2
O=S(=O)(Nc1ccccc1)c1ccc2c(c1)OCCCO2	·	1.7
COC(=O)C1=C(C)NC2=C(C(=O)CC(C)(C)C2)C1c1ccc(O)c(OC)c1 (configuration not stated)	-0.73	0.68
CC1(C)Cc2c(c(-c3ccccc3)nc3sc4c(NCCN5CCOCC5)ncnc4c23)CO1	-3.1	·
Cc1ccc2nc(NC(=O)c3cc(=O)c4cc(C)ccc4o3)sc2c1	-1.1	0.91

Reformatted comma-delimited: entries from further up.
Molecule,CDC25B CDK2 inh,TAR Tat displ
Cc1nnc2n(c1=O)C(CS(=O)(=O)c1ccccc1)CS2 (configuration not stated),0.65,-1.4
Cc1cccc(C(=O)Nc2ccccc2-c2nc3ccccc3[nH]2)c1,0.47,·
NCCn1c(CCc2ccccc2)nc2ccccc21,·,1.7
Cc1ccn2c(=O)c(NC(=O)CC3CCCCC3)c(C)nc2c1,·,0.76
CC1CCCN(S(=O)(=O)c2cc(Br)cnc2N)C1 (configuration not stated),-1.5,0.81
Fc1ccccc1COc1nsnc1N1CCOCC1,-0.67,-0.07
CCn1nc(C)c(CNC(=O)Nc2ccc(OC)cc2OC)c1C,·,0.28
Fc1ccc(-c2ccc(CNCCSc3nnnn3-c3ccccc3)o2)cc1,0.44,1.1
Cc1ccc2nc(NCc3ccc4c(c3)OCO4)c3nncn3c2c1,-0.45,1.4
Cc1ccc(S(=O)(=O)n2nc(-c3ccc(Cl)cc3)nc2N)cc1,0.15,0.84
Cc1cc(C)c(Nc2nnc(SCC(=O)c3ccccc3)s2)cc1C,-0.36,·
C=C1C[C@]23C[C@@]1(O)CC[C@H]2[C@@]12C=C[C@H](O)C(C)(C(=O)O1)[C@H]2[C@@H]3C(=O)O,-0.76,-1.1
CC(c1nnc(SCC(=O)N2CCc3ccccc32)n1C)N1C(=O)COc2ccccc21 (configuration not stated),·,-1.7
CCOC(=O)Cn1c(=O)oc2cc(S(=O)(=O)N3CCCCC3)ccc21,-0.36,-0.5
CN1CCN(c2nc3c(c(=O)n(C)c(=O)n3C)n2Cc2cccc(F)c2)CC1,0.16,2
O=S(=O)(Nc1ccccc1)c1ccc2c(c1)OCCCO2,·,1.7
COC(=O)C1=C(C)NC2=C(C(=O)CC(C)(C)C2)C1c1ccc(O)c(OC)c1 (configuration not stated),-0.73,0.68
CC1(C)Cc2c(c(-c3ccccc3)nc3sc4c(NCCN5CCOCC5)ncnc4c23)CO1,-3.1,·
Cc1ccc2nc(NC(=O)c3cc(=O)c4cc(C)ccc4o3)sc2c1,-1.1,0.91

The list goes on:
SMILES	CDC25B CDK2 inh	TAR Tat displ
COC(=O)C1=C(\N2CCOCC2)CCCC/C=C\1C(=O)OC	-1.8	0.42
O=C(Nc1ccc(Cl)cc1)C1Nc2ccccc2S(=O)(=O)N1 (configuration not stated)	·	-0.44
CCOC(=O)c1cccc(N2CC(O)=C(c3nc4ccccc4[nH]3)C2=N)c1	0.86	1.9
CSc1cccc(NC(=O)c2cc3c(-c4ccccc4F)nn(C)c3s2)c1	-0.18	·
Cc1ccccc1OCCSc1nc(-c2cccc(F)c2)nc2cc(=O)[nH]n12	·	0.41
Cn1c(=O)c2c(-c3ccccc3)n3c(c2n(C)c1=O)C(c1ccc(O)c(O)c1)Nc1ccccc1-3 (configuration not stated)	-1.1	19
CCCn1c(=O)[nH]c2c(c1=O)C(C)(C)Cc1ccccc1-2	-0.33	1.3
Cc1c(-c2ccccc2)sc(/N=C/c2cc(Cl)cc(Cl)c2O)c1C#N	0.92	·
Cc1ccc(S(=O)(=O)N(CCc2cccs2)CC(=O)O)cc1	-2.3	·
CC(=O)O/N=C(/N)c1csc([N+](=O)[O-])c1	-0.93	·
C=CCn1c(=O)[nH]c2nc3cc(NC(C)=O)c(C)cc3nc2c1=O	0.19	-6.6
CCc1nnc(SCc2nc(-c3cccc(Cl)c3)oc2C)c2cc3occc3n12	·	2.2
CC(=O)N1N=C(c2c(F)cccc2Cl)OC1Cn1nnc2ccccc21 (configuration not stated)	·	1.2
O=C(c1ccc(CS(=O)c2ccccc2Cl)o1)N1CCN(c2cccc(Cl)c2)CC1 (configuration not stated)	·	1.2
CC(C)C(=O)Nc1ccc(S(=O)(=O)Nc2ccc3c(c2)CC(=O)N3C)cc1	·	1.1
O=C(OCn1nnc2ccccc2c1=O)c1ccc(S(=O)(=O)N2CCCC2)cc1	-1	·
CCOC(=O)c1c(NC(=O)CSc2nc(SC)ns2)sc2c1CCCC2	0.93	1.7
COc1ccc(-c2noc(NCC3CCCO3)n2)cc1OC (configuration not stated)	·	1.1
Cc1c(NS(=O)(=O)c2ccc(F)cc2)c(-n2cnnc2)nn1C	-1.8	0.26
Cc1nn(C)c(C)c1S(=O)(=O)N(Cc1cc(CN2CCOCC2)cs1)c1ccc(Cl)cc1	·	-0.8
CCOC(=O)C1=C(Nc2ccc(OC(C)=O)cc2)C(=O)N(C(C)(C)C)C1	0.96	·
O=S(=O)(Nc1ccc2c(c1)nc1n2CCN(Cc2ccccc2)C1)c1ccc(F)cc1	-0.26	-0.62
CCOC(=O)C1CCN(C(=O)Cn2ncn3cccc3c2=O)CC1	-0.49	3
Cc1ccc(Cn2cc(S(=O)(=O)c3ccc(C)cc3)c(=O)c3cc4c(cc32)OCO4)cc1	-4.8	0.14
CCOc1cccc2c1Oc1[nH]c(-c3cccc(OC)c3OC)nc(=S)c1C2	-1.8	1.9
COc1ccc(Sc2nc3ccccc3n3c(C)nnc23)cc1	-0.45	-0.21
